Source: PubChem BioAssay (several laboratories)
CSC inhib: blocks cancer stem cells; cancer stem cell-like cells viability, luminescence; inhibition, % at 7.5 µM; 300,000 compounds, 1.1% hits;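 active means mean at 75% or more and at least half the replicates too; inconclusive means mean and replicates disagree; tested in HMLE shEcad cells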;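 further: 0% = median of negative and 100% = median of positive control wells; the first replicate is given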
HIV Env fusion: inhibitors of HIV Env-mediated cell fusion. HeLa-JRFL Env/CEM21 cell fusion, luciferase. inhibition, % at 12.3 µM. 360,000 compounds, 1.1% hits. AID 651610;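 active means mean replicate inhibition score of at least 50 and every replicate individually at or above 50; inconclusive means only one of the two criteria met; inactive means mean below 50 and not all replicates reaching 50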;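 further: 0% = plate neutral controls and 100% = maraviroc near 300 nM; one replicate is shown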
PABP FP inh: blocks human PABP binding to poly(A) RNA | 290,000 compounds, 1% hits | inhibition, % at 35 µM | P11940 | fluorescence polarization | AID 2014;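 active means 50% or more with normal probe brightness, or confirmed in later tests; inconclusive means above 50% with abnormal brightness, or retests that disagree; inactive means below 50% or failed in later tests; about a fifth of its hits are not listed in these tables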;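 further: calls also rest on retests at 20 µM and on dose response follow-up; controls were probe without protein and protein plus probe with vehicle; some compounds called inactive have numbers as strong as hits; many hits fall short of the cut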
Target sequence (P11940 whole entry, looked up): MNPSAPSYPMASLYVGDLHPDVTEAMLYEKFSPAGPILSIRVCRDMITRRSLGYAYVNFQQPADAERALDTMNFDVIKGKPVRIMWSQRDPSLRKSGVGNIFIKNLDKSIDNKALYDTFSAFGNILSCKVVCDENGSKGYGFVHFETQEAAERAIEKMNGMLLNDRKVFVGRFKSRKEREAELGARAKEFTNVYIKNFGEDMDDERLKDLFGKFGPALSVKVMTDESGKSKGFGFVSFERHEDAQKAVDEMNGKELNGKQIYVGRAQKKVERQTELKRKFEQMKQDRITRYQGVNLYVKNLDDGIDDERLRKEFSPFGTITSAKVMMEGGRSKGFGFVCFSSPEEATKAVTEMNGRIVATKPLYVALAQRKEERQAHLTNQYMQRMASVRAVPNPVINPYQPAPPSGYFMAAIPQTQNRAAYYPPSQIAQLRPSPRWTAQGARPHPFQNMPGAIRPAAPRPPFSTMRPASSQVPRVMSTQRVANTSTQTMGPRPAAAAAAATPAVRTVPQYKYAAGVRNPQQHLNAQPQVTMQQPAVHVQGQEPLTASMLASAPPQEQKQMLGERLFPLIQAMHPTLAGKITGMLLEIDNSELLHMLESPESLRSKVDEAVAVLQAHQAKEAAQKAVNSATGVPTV
eIF4H FP inh: inhibitors of RNA binding by human eIF4H; Q15056; eIF4H fluorescence polarization binding assay; inhibition, % at 35 µM; 290,000 compounds, 0.94% hits; AID 2012;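 active means 50% or more with normal probe brightness, or confirmed in later tests; inconclusive means above 50% with abnormal brightness, or retests that disagree; inactive means below 50% or failed in later tests; about a fifth of its hits are not listed in these tables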;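 further: calls also rest on retests at 20 µM and on dose response follow-up; 0% = protein and probe with vehicle and 100% = probe without protein; strong numbers were not always called active; many hits fall short of the cut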
UUG fidelity: alters start codon recognition fidelity in yeast | S. cerevisiae UUG-firefly luciferase reporter, luminescence/redox ratio | activity score, % at 18.7 µM | 350,000 compounds, 0.13% hits | AID 602363;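 active means replicate mean at a twofold rise or more, about +100% in these data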;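 further: firefly luciferase made from a UUG start codon reports start codon fidelity; reporter light over untreated wells divided by growth signal over untreated wells; some hits fall short of that in this replicate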
Rce1 inh: blocks yeast Ras-converting enzyme | calls only | yeast membranes, quenched prenylated peptide cleavage fluorescence | 290,000 compounds, 0.27% hits;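 active means fall in fluorescence gain of 50% or more versus controls, with final raw signal at or below 3038400; inconclusive means same 50% fall but final raw signal above 3038400; inactive means fall in fluorescence gain under 50%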;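 further: plate controls were neutral control wells for no effect and wells lacking membranes for full effect; tested at 10 µM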
Target sequence (Q03530 whole entry, looked up): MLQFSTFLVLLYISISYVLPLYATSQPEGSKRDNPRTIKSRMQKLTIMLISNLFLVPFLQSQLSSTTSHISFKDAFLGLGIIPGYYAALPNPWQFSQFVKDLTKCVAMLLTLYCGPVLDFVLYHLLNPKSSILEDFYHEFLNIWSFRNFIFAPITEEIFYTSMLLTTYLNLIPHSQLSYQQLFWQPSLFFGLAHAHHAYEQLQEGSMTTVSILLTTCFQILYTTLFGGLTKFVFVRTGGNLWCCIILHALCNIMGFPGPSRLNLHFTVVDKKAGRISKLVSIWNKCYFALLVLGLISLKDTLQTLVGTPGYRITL
MT1-MMP act inh: inhibitors of human MT1-MMP activation | P50281 | HT1080 RFP-PRO-GFP cells, GFP/RFP ratio fluorescence, overnight; percent of plate control window, DMSO zero | GFP/RFP ratio change, % at 20 µM | 360,000 compounds, 0.061% hits | AID 651647;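 active means GFP/RFP ratio change of at least 30% with cell ATP level not reduced by more than half and red fluorescence within 50% of control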; further: strong numbers were not always called active
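Compound: 20 µM single dose, 1% DMSO / System: HT1080 RFP-PRO-GFP cells / Controls: DMSO and RFP-L50D-GFP cell wells / Read-out basis: GFP/RFP fluorescence ratio / Schedule: overnight compound exposure at 37 °C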
eIF4H FP inh retest: recorded beside eIF4H FP inh, whose call it bears; inhibition, %; compound at 20 µM; confirmation average;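 mean of two retest wells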
PABP FP inh retest: further read-out of PABP FP inh, marked with its call; inhibition, %; compound at 20 µM; confirmation repeats;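 mean of two retest wells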
MT1-MMP act inh RFP: further read-out of MT1-MMP act inh, marked with its call; RFP signal change, %; measured here: RFP expression control read;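 0 = vehicle wells; hits needed this value within 50% of zero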
Active calls of the source: *; i = inactive; ? = inconclusive; nt = not tested or not shown.

SMILES | CSC inhib | HIV Env fusion | PABP FP inh | eIF4H FP inh | UUG fidelity | Rce1 inh | MT1-MMP act inh | MT1-MMP act inh RFP | others
COC(=O)CSc1nnc2c3c4c(sc3nc(-n3nc(C)cc3C)n12)COC(C)(C)C4 | -3 | nt | 4 | -1 | -13 | i | -4 | -3
O=c1oc(C2(O)CCCCC2)cc2ccc(/C=C/c3ccc(F)cc3)cc12 | 23 | -11 | nt | nt | -13 | nt | -1 | -18
COc1cccc(OC)c1OCCCSc1nc(C)cc(=O)[nH]1 | 4 | 20 | -12 | -2 | nt | i | 3 | 4
COc1ccc2c(c1)CCc1c-2nc2ccccc2c1N1CCOCC1 | 21 | 2 | 27 | 9 | nt | i | -2 | 1
COc1cccc(NS(=O)(=O)c2c(C)cc(C)cc2C)c1 | 0 | ? | -10 | -17 | 21 | i | 24 | -11
COc1ccc(NC(=O)CSc2nnnn2C)c([N+](=O)[O-])c1 | nt | 11 | -9 | -4 | nt | i | -1 | 1
CN(C)c1cccc(C(=O)N/N=C/c2ccccc2F)c1 | 3 | 5 | -1 | -6 | nt | i | 1 | -1
Cn1cccc1/C=N/NC(=O)CSc1nc2ccccc2n1C | -11 | 4 | 5 | 2 | nt | i | 1 | -1
CCCN(CCC)C(=O)Cn1c(=O)n(CCCC(=O)NCc2ccco2)c(=O)c2sccc21 | -29 | 15 | 5 | -8 | nt | i | -3 | 0
Cc1nc(N2CCN(S(=O)(=O)c3ccc(Br)cc3)CC2)c2c(C)c(C)sc2n1 | 4 | -5 | 4 | 0 | -7 | i | -1 | -2
COC(=O)c1ncccc1SC | -7 | 22 | -14 | -4 | -10 | i | -2 | 5
CCc1cc2c(=O)c(-n3cnc4ccccc43)coc2cc1O | 1 | nt | 0 | -3 | -15 | i | 2 | -5
COc1cc(C(C)=O)ccc1Oc1ccc(S(=O)(=O)N2CCOCC2)cn1 | -10 | nt | nt | nt | 8 | nt | 3 | -1
CCCCCCN1Cc2ccccc2C1 | 15 | nt | -3 | 14 | -3 | i | 13 | -2
O=C(NCc1n[nH]c(=S)n1-c1ccc(Cl)c(Cl)c1)c1ccc(S(=O)(=O)N2CCCCC2)cc1 | 7 | 8 | 2 | -2 | -3 | i | 4 | -2
O=S(=O)(c1ccc(Cl)cc1)N1CCn2c1nc1ccccc12 | -4 | -31 | 3 | 7 | -9 | i | -1 | -6
COc1cccc(C(=O)N(C)Cc2c(C)nn(C3CCS(=O)(=O)C3)c2C)c1 (centres undefined) | -3 | 4 | nt | nt | -4 | nt | 2 | -1
CC1CCN(c2c([N+](=O)[O-])nn(-c3ccc4c(c3)OCCO4)[n+]2[O-])CC1 | -2 | -30 | -4 | 1 | -18 | i | 3 | 3
COC(=O)c1ccccc1S(=O)(=O)N1CCCC(c2nc3c(nnn3Cc3ccc(C)cc3)c(=O)[nH]2)C1 (centres undefined) | -15 | 4 | -2 | 1 | 3 | i | 1 | 2
Cc1c(N=C2N=C(NC(=O)c3ccc(F)cc3)c3ccccc32)c(=O)n(-c2ccccc2)n1C | 14 | 16 | ? | ? | nt | nt | -109 | -5
Cc1[nH]c2ccccc2c1CN1CCN(c2ccccn2)CC1 | -10 | 10 | 1 | 9 | 19 | i | -4 | -2
CCN(C(=O)COC(=O)c1ccc(=O)n(Cc2ccccc2)n1)C1CCCCC1 | -4 | 9 | nt | nt | -7 | nt | -1 | -1
COc1ccc2cc(CN(CCCN3CCOCC3)Cc3nnnn3C3CCCC3)c(=O)[nH]c2c1 | -7 | nt | 18 | 0 | -2 | i | -1 | 2
CSCCC(NC(=O)c1ccccc1)C(=O)N1CCN(C(=O)c2ccccc2)CC1 (centres undefined) | -7 | -6 | nt | nt | -1 | nt | 1 | 8
CCN(CC)C(=O)C1CCN(S(=O)(=O)c2ccc(C3CNC(=O)C3)cc2)CC1 (centres undefined) | -2 | 6 | -13 | 9 | -13 | i | 1 | -2
Later entries.
SMILES | CSC inhib | HIV Env fusion | PABP FP inh | eIF4H FP inh | UUG fidelity | Rce1 inh | MT1-MMP act inh | MT1-MMP act inh RFP | others
CCN(C(=O)COC(=O)c1cccnc1)c1cccc2ccccc12 | -4 | nt | nt | nt | -12 | nt | -4 | -3
Cc1ccc(CNC(=O)c2coc(=O)c3ccccc23)o1 | -18 | 24 | 0 | -7 | -2 | i | 0 | 3
O=C(c1ccc(F)cc1)N1CCCC(N2CCN(Cc3ccc4c(c3)OCO4)CC2)C1 (centres undefined) | 0 | -4 | 5 | -9 | -10 | i | 0 | 1
O=C(c1ccccn1)N1N=C2/C(=C/c3ccccc3)CCCC2C1c1ccccc1 (centres undefined) | 12 | 3 | -2 | -1 | 1 | i | -10 | -6
CC(=O)c1c(C)[nH]c(C(=O)NCc2ccccn2)c1C | -16 | -19 | 3 | 1 | -17 | i | 11 | 4
CC1CC(C)CN(C(=S)Nc2ccc(SC(F)F)cc2)C1 (centres undefined) | -2 | 18 | -2 | -2 | nt | i | 0 | 4
Cc1cccc(S(=O)(=O)Nc2nc3ccccc3nc2NCc2ccc3c(c2)OCO3)c1 | nt | 10 | -6 | 11 | nt | i | 0 | 1
Cc1nnc(SCC(=O)Nc2cccc(S(=O)(=O)N3CCCC3)c2)n1C1CC1 | nt | 6 | nt | nt | -8 | nt | 5 | 1
COc1ccc(NC(=O)N2CCN(c3ccc([N+](=O)[O-])cc3)CC2)cc1 | -7 | 36 | -8 | -3 | nt | i | 7 | -4
Cc1ccc2c(c1)C(c1ccc(N3CCOCC3)cc1)=NNC(c1cccs1)=N2 | -5 | -18 | 3 | -6 | -11 | i | 4 | 0
Cc1cc(OCC(=O)NCCO)ccc1Cl | -16 | -47 | -11 | 0 | -15 | nt | 3 | 6
CCOC(CNC(=O)c1ccc2c(c1)ncn2-c1ccc(F)c(F)c1)OCC | 2 | 11 | 42 | 0 | nt | nt | 3 | 1
O=C1N=c2ccccc2=C1c1sc(=S)n(NC(=O)c2cccc(O)c2)c1O | nt | 1 | 11 | -8 | nt | i | 2 | 6
O=C(CN1CCOC1=O)N1CCCC(N2CCN(c3cccc(C(F)(F)F)c3)CC2)C1 (centres undefined) | 2 | -1 | 2 | -18 | -3 | i | 1 | 2
O=C(NCC(=O)N1CC=C(c2ccccc2)CC1)c1ccco1 | -10 | 11 | nt | nt | 33 | i | 3 | 6
Cc1cccc(NC(=O)[C@H](C)NC(=O)[C@@H]2Cc3ccccc3CN2C(=O)OC(C)(C)C)c1 | -1 | 10 | -2 | 6 | 15 | i | -3 | 1
CC(C)NC(=O)CSc1nc2ccccc2n1CC(=O)N(C(C)C)C(C)C | nt | 3 | -1 | -13 | nt | i | 0 | 1
Cn1cccc1CNC(=S)Nc1ccccc1F | 11 | 1 | 80 | -2 | nt | i | -1 | 3 | eIF4H FP inh retest=-10;PABP FP inh retest=-3
COc1cc(/C=N/n2cnnc2)ccc1OC(=O)c1cccnc1 | -13 | -98 | 5 | 8 | nt | i | 1 | 0
O=c1[nH]c2ccccc2c2nc3ccccn3c12 | 0 | i | 3 | 8 | -9 | i | 5 | 2
CCOC(=O)CNC(=O)CSc1nc2nc(C)c(Br)cc2[nH]1 | -11 | nt | -6 | -4 | -12 | i | -1 | 3
c1cc2c(cc1-c1[nH]ncc1CN1C[C@H]3CC[C@H]1C3)OCO2 | -4 | 7 | -8 | -9 | 10 | i | 3 | 4
O=C(c1cccs1)N1CCCC(c2nc3c(nnn3Cc3ccccc3)c(=O)[nH]2)C1 (centres undefined) | nt | 15 | 3 | -10 | -3 | i | 1 | 1
CCC(=O)NC(=S)Nc1ccc(NC(=S)NC(=O)c2ccc(C)cc2)cc1 | -26 | -6 | -4 | -7 | nt | i | 2 | -1
COc1ccc(CN2C(=O)c3ccccc3C(/C=N\OCc3ccc(C)cc3)C2=O)cc1 (centres undefined) | 15 | nt | 3 | -5 | 8 | i | -3 | -1
More entries:
SMILES | CSC inhib | HIV Env fusion | PABP FP inh | eIF4H FP inh | UUG fidelity | Rce1 inh | MT1-MMP act inh | MT1-MMP act inh RFP | others
Cc1ccc(N(Cc2cc3ccc(C)cc3[nH]c2=O)C(=O)c2ccco2)cc1 | -2 | 14 | 10 | -2 | nt | i | 0 | -4
COc1ccc(N2CCN(S(=O)(=O)c3ccc4c(c3)CC(C)N4C(=O)C3CC3)CC2)cc1 (centres undefined) | -5 | 6 | 7 | -15 | -14 | i | -1 | -26
CCCCn1c(N)c(N(CCC(C)C)C(=O)COC(=O)Cc2ccc(Cl)cc2)c(=O)[nH]c1=O | nt | -3 | nt | nt | -16 | nt | -11 | -11
Cc1c(C(=O)N(Cc2ccccc2)Cc2cccs2)cnn1-c1ccc(Cl)cc1 | 80* | 12 | 0 | -4 | -10 | i | 1 | -5
O=C1CN(C(=O)CN2CCCC2)C(c2ccccc2)c2cc(Br)ccc2N1 (centres undefined) | 8 | 10 | -6 | 1 | -11 | nt | 0 | 1
Cc1csc(C(C)N(C)C(=O)CCc2nnc(CCc3ccccc3)o2)n1 (centres undefined) | 0 | 5 | 2 | 6 | -9 | i | 5 | 2
CC(=O)Nc1cc(-c2ccccc2)cn2c(-c3cccc(C(C)=O)c3)cnc12 | nt | 4 | nt | nt | -9 | nt | -4 | 0
COc1cccc(OC)c1C(=O)Nc1ccc(C(=O)c2ccncc2)cc1 | -4 | -11 | nt | nt | -7 | i | -1 | -3
Cc1ccccc1C(=O)NCC(=O)NC1CC1 | -7 | nt | nt | nt | -6 | nt | -2 | 6
COc1ccc(C(=O)c2c(C)c3cc(C)ccc3n2CC(O)CN2CCOCC2)cc1 (centres undefined) | -2 | -33 | 2 | 2 | nt | i | 1 | -8
OC(CNCc1ccc(-c2ccccc2)cc1)c1ccccc1 (centres undefined) | 62 | -48 | 54 | -5 | nt | i | -5 | -10 | eIF4H FP inh retest=0;PABP FP inh retest=3
C[n+]1cnn2c1SCC1(COC1)C2 | -10 | nt | nt | nt | 10 | i | -5 | 0
CC(C)(C)c1ccc(-n2nc(C(N)=O)c(O)cc2=O)cc1 | -5 | 8 | -11 | 3 | -4 | i | 6 | 9
C[C@@H]1CN([C@H](C)CO)C(=O)c2cc(C#C[C@@H](C)O)cnc2O[C@H]1CN(C)C(=O)c1ccc(F)cc1 | nt | 7 | nt | nt | -12 | nt | 5 | 6
COc1ccc(Nc2nc(C)cc(C)c2C#N)c(OC)c1 | -15 | -59 | 3 | -3 | -20 | i | -1 | 1
O=C(CN(Cc1ccccc1)C(=O)CCC(=O)Nc1nccs1)NCc1ccccc1 | nt | 3 | -10 | -2 | nt | i | 0 | 1
Cc1cc(C)nc(N2N=C(C(F)(F)F)CC2=O)n1 | -6 | -4 | 8 | -4 | nt | i | 1 | 2
CC(=O)N/C(=N\OCc1ccccc1Cl)c1nonc1NC(C)=O | -28 | nt | 8 | -9 | -12 | i | 2 | -5
CC1CCc2sc(C(=O)N(C)CC(=O)Nc3cccc(F)c3)cc2C1 (centres undefined) | 9 | -9 | 17 | -6 | -13 | i | 0 | -1
CCCCN(CCCC)CCC(O)c1cc2c(Cl)cc(Cl)cc2c2cc(C(F)(F)F)ccc12 (centres undefined) | 95* | 11 | nt | nt | -24 | nt | -10 | -7
Cc1ccc(Nc2c(-c3ccc(N4CCOCC4)cc3)nc3ncccn23)cc1C | -2 | 13 | -8 | -6 | -9 | i | -4 | 2

A portion of the library; the hit share may differ from the screen's.
